Assay outcomes (PubChem BioAssay)
Ecoli rRNA inh = inhibitors of bacterial rRNA selective over humanized ribosomes | E. coli WT GFP vs humanized-ribosome RFP mutants, fluorescence, 24 h; stronger effect = lower value; DMSO median 0, no signal -100 | GFP signal change (wild-type ribosome), % (concentration not given with the values) | 350,000 tested, 1.6% active | AID 720706;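 active = significant combined selectivity score with lowered wild-type GFP, culture density cut under 30%, mutant RFP and density less affected; inactive = any of these conditions unmet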; note: one replicate is shown; some compounds called inactive have numbers as strong as hits
ALR H2O2 inh = human ALR oxidase inhibition via reduced H2O2; purified ALR, DTT oxidation, H2O2 HRP-luminol luminescence; inhibition, % (concentration not given with the values); 290,000 tested, 3.8% active;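 active = mean and each replicate at 75% or more; inconclusive = only one of the two met; inactive = neither met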;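 note: stock transfer was 7.5 nL into about 7.5 µL; 0% = neutral wells and 100% = wells with inactivated enzyme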
Target sequence (P55789 whole entry, looked up): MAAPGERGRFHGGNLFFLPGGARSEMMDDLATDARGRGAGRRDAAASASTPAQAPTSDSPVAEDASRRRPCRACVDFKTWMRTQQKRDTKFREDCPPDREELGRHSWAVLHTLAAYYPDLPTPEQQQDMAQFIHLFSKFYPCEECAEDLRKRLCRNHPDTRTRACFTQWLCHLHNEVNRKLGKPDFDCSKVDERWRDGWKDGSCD
MLL AF4-AF9 inh = inhibitors of human MLL-AF4/AF9 interaction | P42568 | AlphaScreen, biotin-AF4 peptide binding to FLAG-AF9 | inhibition, % at 10 µM | 350,000 tested, 0.47% active;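 active = every replicate reaching a set inhibition limit, whatever the replicate mean, cut at about 25% in these data; inconclusive = mean inhibition reaches that limit but some replicates miss it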;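 note: 0% = plate neutral control median and 100% = total signal loss; the record names both 10 and 1 µM as test concentration; the first replicate is given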
Ecoli growth = inhibitors of Escherichia coli growth; AID 1053175; 330,000 tested, 0.21% active; OD600, 23 h; stronger effect = lower value; OD600 absorbance (test concentration not listed);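 active = OD600 absorbance below the run mean of sample wells minus 3.6 SD, in any replicate, cut at about 0.56 in these data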;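 note: stock transfer was 300 nL into about 60 µL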
Vif A3G = inhibitors of Vif binding to APOBEC3G peptide, primary screen, biochemical, TR-FRET, GST-Vif 1-94, biotin-A3G peptide, dose response retest (AID 1117319) | 260,000 tested, 0.57% active | one-dose inhibition, %; IC50 in µM for titrated hits | TR-FRET GST-Vif / biotin-A3G peptide binding; higher % means a stronger effect; test concentration not given here; strong numbers were not always called active;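 active = above the screen mean plus three standard deviations and confirmed in dose response; inconclusive = results disagree or hit not tested in dose response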;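 note: Vif residues 1-94 fused to GST binding biotinylated APOBEC3G peptide 110-148; 0% = full assay without inhibitor and 100% = GST in place of GST-Vif; retest series ran down from 100 µM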
HNF4A DNA FP = change in binding of human HNF4 alpha to DNA; AID 1224865; activity change, % at 10 µM; HNF4a-FITC DNA binding, fluorescence polarization, 1 h; 360,000 tested, 0.3% active; P41235; in the data active = activity change above about 30%, passing the limit was not always enough;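 note: controls were the assay level and a saturating level of protein; the project sought stronger binding though the title names inhibitors; some compounds called inactive have numbers as strong as hits; positive values seem to mean higher polarization but the record does not say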
Target sequence (P41235 whole entry, looked up): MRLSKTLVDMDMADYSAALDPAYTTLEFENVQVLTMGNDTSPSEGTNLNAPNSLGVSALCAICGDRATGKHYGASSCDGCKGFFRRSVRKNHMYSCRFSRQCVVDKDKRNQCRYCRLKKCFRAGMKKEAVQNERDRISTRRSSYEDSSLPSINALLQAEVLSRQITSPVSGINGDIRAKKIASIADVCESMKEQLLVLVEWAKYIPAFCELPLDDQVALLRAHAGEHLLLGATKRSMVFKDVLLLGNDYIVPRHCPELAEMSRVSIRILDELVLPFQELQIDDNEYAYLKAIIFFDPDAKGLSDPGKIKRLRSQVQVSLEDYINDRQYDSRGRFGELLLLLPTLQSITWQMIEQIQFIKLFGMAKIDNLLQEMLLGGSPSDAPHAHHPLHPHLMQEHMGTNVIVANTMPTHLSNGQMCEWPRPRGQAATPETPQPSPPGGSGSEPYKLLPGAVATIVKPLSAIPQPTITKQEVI
FGF22 binding = shifts melting point of recombinant human FGF22; Q9HCT0; calls only at 9.99 µM; recombinant FGF22 thermal shift, SYPRO orange fluorescence; percent of sucrose octasulfate shift, DMSO zero; AID 651658; 340,000 tested, 1.5% active;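 active = melting point raised past a set limit in the mean and every replicate; inconclusive = no clear call; three in four hits are not shown here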
Target sequence (Q9HCT0 whole entry, looked up): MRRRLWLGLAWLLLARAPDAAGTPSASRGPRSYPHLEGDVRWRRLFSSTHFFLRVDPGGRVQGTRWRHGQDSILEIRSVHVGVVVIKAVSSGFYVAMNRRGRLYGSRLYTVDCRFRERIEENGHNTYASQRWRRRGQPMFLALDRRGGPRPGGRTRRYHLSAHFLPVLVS
Ecoli rRNA inh OD600 = recorded beside Ecoli rRNA inh, whose call it bears; OD600 change, %; measured here: OD600 growth;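 optical density of the mix in the first replicate; 0 = DMSO median and -100 = no signal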
Ecoli rRNA inh RFP = recorded beside Ecoli rRNA inh, whose call it bears; RFP signal change, %; measured here: RFP humanized mutant strains;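 first replicate; 0 = DMSO median and -100 = no signal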
Starred values were filed as active, the others as inactive; i = inactive; ? = inconclusive; . = no result given; + = active, no number. A portion of the library, so the mix of outcomes need not match the whole.

SMILES	Ecoli rRNA inh	Ecoli rRNA inh OD600	Ecoli rRNA inh RFP	ALR H2O2 inh	MLL AF4-AF9 inh	Ecoli growth	Vif A3G	HNF4A DNA FP	FGF22 binding
CO[C@@H]1CN(C)C(=O)c2ccc(NS(=O)(=O)CC(F)(F)F)cc2OC[C@@H](C)N(Cc2nccs2)C[C@@H]1C	-4	-5	-1.0	.	1.0	.	.	.	i
Cc1ccnc(NC(=O)CNC(=O)c2ccco2)c1	8	10	0.1	-4	-1.7	0.71	-3%	0.8	i
COc1ccccc1OCCCC(=O)NCc1ccco1	3	7	0.3	-3	-2.4	0.71	5%	0.0	i
NC(=NCCc1c[nH]c2ccccc12)NC(=O)c1ccc(Cl)cc1	-24	-26	1.2	56	12	0.59	8%	0.1	i
Cc1cc(C)cc(NC(=O)C2CCCC2)c1	.	.	.	-3	.	0.62	-2%	-2.1	.
COc1cc(/C=C/C(=O)OCC(=O)NCCCc2ccccc2)cc(OC)c1OC	-18*	-11*	4.6*	-2	0.3	0.66	.	4.6	i
CCOc1ccc(CNC(=S)N/N=C/c2ccncc2)cc1	-11	-10	-1.7	1	-2.5	.	-7%	0.2	i
COC(=O)C1SCC2C(=O)N(Cc3ccc(F)cc3)CC(=O)N21 (stereo not drawn)	10	6	-1.1	-21	-1.3	0.7	-11%	5.0	i
CCNc1nc(Oc2ccc(C(=O)OCC)cc2)nc(N2CCOCC2)n1	.	.	.	-2	.	0.7	-2%	.	.
Cc1ccccc1C1CCCN(Cc2nc(C3CC3)no2)C1 (stereo not drawn)	-19	-13	-3.2	-4	-1.8	0.68	-4%	-0.2	i
CCCCN(C)CCNC(=O)CN1C(=O)CSc2ccc(S(=O)(=O)N3CCCCC3)cc21	12	10	0.3	-28	2.9	.	.	-0.8	i
CCOc1ccc(Oc2ccc(S(=O)(=O)N3CCOCC3)cc2NC(=O)CCNC(C)=O)cc1	6	10	2.2	0	-5.7	0.63	-3%	-1.1	i
O=C(CN1C(=O)CSc2ccc(S(=O)(=O)N3CCOCC3)cc21)NCCCN1CCOCC1	12	6	-1.5	-6	-1.0	0.69	-7%	-1.3	i
O=C(Nc1ccc2c(c1)nc1n2CCOC1)C1CCCCC1	.	.	.	-4	.	0.73	0%	0.0	.
O=C(CSc1nnc(-c2ccc(F)cc2)o1)N1CCN(C(=O)c2ccco2)CC1	.	.	.	-12	.	0.71	0%	1.3	.
O=C(NNc1cc(Cl)ccc1Cl)c1cccnc1Cl	-5	-9	-2.5	-23	-0.2	0.66	0%	1.1	i
COC(=O)[C@]1(C)N[C@H](c2ccc(-c3ccccc3)cc2)[C@@H]2C(=O)N(C)C(=O)[C@@H]21	12	8	5.1	-4	.	.	.	-0.6	+
Cn1ccnc1Sc1ccc(C=O)cc1[N+](=O)[O-]	11	8	-4.6	-8	-0.4	0.65	7%	4.6	i
COc1ccccc1NS(=O)(=O)c1ccc(C)c(C(=O)NCc2cccnc2)c1	-2	2	-3.0	-2	0.9	0.7	-6%	1.2	i
COc1ccc(NC(=O)C2C3C=CC(O3)C2C(=O)NCc2cccnc2)cc1 (stereo not drawn)	.	.	.	-4	.	0.68	0%	-1.6	.
O=C(CN1C(=O)COc2ccccc21)Nc1ccccc1F	16	12	-0.6	.	-0.9	0.69	.	2.5	i
O=C(Cn1cnc2c(oc3ccccc32)c1=O)NCC1CCCO1 (stereo not drawn)	.	.	.	-16	.	0.67	?	0.9	.
N#Cc1c(=O)c2nc(NCCCO)ncc2n2c(=O)c3ccccc3[nH]c12	-2	5	-3.8	-35	11	0.64	28%	0.5	i
Cc1onc(-c2c(F)cccc2Cl)c1C(=O)Oc1ccccc1	-16	-22	-8.3	.	-7.4	.	.	3.6	i
CC(C)CN1C(=S)SC(C)(C)C1n1oc(=O)n(-c2ccc(Cl)cc2)c1=O (stereo not drawn)	.	.	.	-1	.	0.64	3%	-3.4	.
SMILES	Ecoli rRNA inh	Ecoli rRNA inh OD600	Ecoli rRNA inh RFP	ALR H2O2 inh	MLL AF4-AF9 inh	Ecoli growth	Vif A3G	HNF4A DNA FP	FGF22 binding
Cc1ccc(N2CN=C3SCC(=O)N3C2)cc1C	15	16	6.4	12	1.4	0.65	-1%	3.0	i
Cc1ccccc1CN(C)C(=O)COC(=O)CSc1ccc([N+](=O)[O-])cc1	-10	5	0.1	99*	0.8	0.69	0%	-1.5	i
CSc1ncnc2c1ncn2CCCNc1ccc(C)c(C)c1	-26*	-20*	2.2*	.	5.6	.	-2%	-3.8	i
COc1ccc(CN(C)C[C@@H]2Oc3ccc(NC(=O)Nc4ccc(F)cc4)cc3C(=O)N([C@H](C)CO)C[C@@H]2C)cc1	1	-5	1.9	.	3.9	.	.	.	i
O=C(/C=C/c1cccc(Br)c1)c1ccc2c(c1)OCO2	-41	-46	-4.3	10	-15	.	.	1.8	i
COc1ccc(N2CC(C(=O)Nc3nnc(SCCC4OCCO4)s3)CC2=O)cc1 (stereo not drawn)	1	10	4.6	6	-3.2	0.68	.	-4.8	i
c1ccc(Cn2ncc3ccccc32)cc1	11	-3	-1.6	1	0.5	0.57	24%	0.6	i
COc1cc(NC(=O)c2cccs2)ccc1NC(=O)c1ccco1	.	.	.	-13	.	0.68	-2%	-0.9	.
COc1cc(NC(=O)c2cc(-c3ccc(F)cc3OC(C)C)n[nH]2)cc(OC)c1OC	-9	-32	-8.3	.	0.0	.	.	-1.9	i
CCOC(=O)C1CCN(Cc2ccc(F)cc2F)CC1	11	4	-2.3	-17	-39	0.71	5%	0.3	i
CNC[C@@H]1Oc2ccc(NS(C)(=O)=O)cc2C(=O)N([C@@H](C)CO)C[C@H]1C	2	10	-1.2	.	-6.0	.	.	.	i
COCCCNc1nc2nonc2nc1N1CCC(C(C)N2CCOCC2)CC1 (stereo not drawn)	5	10	2.4	-9	-0.7	0.68	-11%	-0.6	i
Cc1ccc(-n2c(C)cc(=O)cc2C)c(C)c1	.	.	.	.	1.3	0.72	12%	0.5	i
CSCC[C@H](NC(=O)c1cccc([N+](=O)[O-])c1C)c1nc2ccccc2[nH]1	.	.	.	-15	.	0.66	.	-1.6	.
Cc1sc(N2C(=O)C3C(C2=O)[C@H]2C=C[C@@H]3C2)c(C#N)c1C (stereo partly drawn)	-2	-5	1.7	-1	3.3	0.65	-7%	-0.1	i
C[C@H]1CN([C@@H](C)CO)C(=O)c2cccc(NC(=O)C3CCOCC3)c2O[C@@H]1CN(C)Cc1ccc(C(F)(F)F)cc1	3	2	0.4	.	-0.2	.	.	.	i
Cc1noc(C)c1S(=O)(=O)Nc1ccc2c(c1)CC(=O)N([C@@H](C)CO)C[C@@H](C)[C@H](CN(C)C)O2	-1	4	-1.9	.	-0.3	.	.	.	i
CCCNc1nc(Cl)nc(Nc2ccc(Cl)cc2)n1	-12	-16	1.5	2	-0.2	0.7	.	-0.9	i
CCn1c(=O)c(CCC(=O)NCCN2CCOCC2)c(C)c2c(C)nn(-c3cccc(C)c3)c21	-1	-5	-2.1	0	2.1	0.66	-3%	1.8	i
COc1cccc(NC(=O)N(C)C[C@@H]2Oc3cc(-c4ccccc4OC)ccc3S(=O)(=O)N([C@@H](C)CO)C[C@@H]2C)c1	-1	-6	1.3	.	4.0	.	.	.	i
COc1ccc(C#Cc2cnc3c(c2)C(=O)N([C@@H](C)CO)C[C@@H](C)[C@@H](CN(C)CC2CCCC2)O3)cc1	3	13	-0.7	.	3.0	.	.	.	i
Cc1noc(C)c1NC(=O)Nc1ccc2c(c1)C(=O)N([C@H](C)CO)C[C@H](C)[C@@H](CN(C)C(=O)c1ccccc1)OCCCC[C@@H](C)O2	1	7	-0.5	.	-3.1	.	.	.	i
CCCCC(=O)Nc1nc(C)c(-c2csc(Nc3ccccc3OC)n2)s1	-3	-6	9.4	-3	4.6	0.67	1%	10	i
C[C@@H](NC(=O)C[C@@H]1C[C@H]2c3cc(NS(C)(=O)=O)ccc3O[C@H]2[C@H](CO)O1)c1ccccc1	2	4	1.2	.	-1.3	.	.	.	i
COc1ccc(N2C(=O)CCC(C(=O)N(C)C3CCCCC3)C2c2ccc(OC)c(OC)c2)cc1 (stereo not drawn)	.	.	.	-4	.	0.67	0%	.	.
SMILES	Ecoli rRNA inh	Ecoli rRNA inh OD600	Ecoli rRNA inh RFP	ALR H2O2 inh	MLL AF4-AF9 inh	Ecoli growth	Vif A3G	HNF4A DNA FP	FGF22 binding
CCCc1cc(=O)oc2cc(C)cc(OC(C)C(=O)N[C@@H](Cc3c[nH]c4ccccc34)C(=O)O)c12 (stereo partly drawn)	.	.	.	-6	.	0.74	.	-0.7	.
Cc1cc(N2CCCC2=O)c(N)cc1N	.	.	.	?	.	0.66	7%	5.1	.
COc1cc(OC)c(C(=O)OCC(=O)N(Cc2ccccc2)C(C)(C)C)cc1OC	-30*	-12*	-0.5*	-7	1.9	0.69	2%	-3.0	i
COc1ccc2c3c([nH]c2c1)[C@H](CO)N(Cc1ccccc1)CC31CN(C(=O)Nc2cccc(F)c2)C1	-8	-10	0.3	.	-1.5	.	.	.	i
Cc1ccc(NC(=O)CSCc2cc(=O)n3nc(C4CC4)sc3n2)cc1	3	8	0.1	99*	2.1	0.65	0%	2.2	i
CC(=O)c1cccc(NC(=O)N2CCCCCC2)c1	10	2	1.4	-11	-0.5	0.7	.	7.0	i
O=CN/N=C/c1c(O)ccc2ccccc12	-20*	6.8*	-8.4*	5	-4.6	.	-11%	-25	i
CCc1cccc(CC)c1NC(=O)Cn1c(-c2ccccc2Cl)nc2ccccc21	.	.	.	-3	.	0.71	.	0.0	.
CCCNC(=O)N(C)C[C@@H]1Oc2ncc(-c3ccc(F)cc3)cc2C(=O)N([C@@H](C)CO)C[C@@H]1C	3	4	-3.8	.	-3.5	.	.	.	i
CN(C(=O)CSc1nc2ccccc2c(=O)n1-c1ccc(F)cc1F)C1CCS(=O)(=O)C1 (stereo not drawn)	.	.	.	-6	0.3	0.68	-15%	2.8	i
O=C1OCc2nc3cc4c(cc3c(-c3ccc(F)cc3)c21)OCO4	2	4	0.5	-3	1.0	0.67	0%	4.1	i
CCN(C(=O)CSc1nnc2ccccn12)c1c(N)n(Cc2ccccc2)c(=O)[nH]c1=O	15	15	8.0	-7	-2.2	0.7	.	1.9	i
CCCCNC(=O)/C(=C/c1ccccc1)NC(C)=O	2	0	-1.7	.	-2.9	0.7	2%	-5.2	i
COc1ccccc1C(=O)Nc1ccc2[nH]ncc2c1	0	-7	-1.5	1	-2.8	0.67	.	0.3	i
O=C(CSc1nc2ccccc2n1CC(=O)N1CCCC1)NCc1ccc2c(c1)OCO2	.	.	.	-2	.	0.66	1%	3.1	.
CCOc1ccc(Cn2nnc(C(=O)NCCc3ccccc3)c2N)cc1	-4	7	-3.1	-3	-5.0	0.75	2%	2.4	i
Cc1cc(CN2CCCC(C(=O)Nc3ccc(-c4nc5ccccc5[nH]4)cc3)C2)n[nH]1 (stereo not drawn)	-10	-2	0.5	0	3.6	0.7	.	-3.1	i
NC(=O)c1ccc(N2CCCCCC2)c([N+](=O)[O-])c1	9	1	4.6	1	1.9	0.69	-3%	5.4	i
Cc1nnc(N2CCOCC2)c2ccccc12	.	.	.	-7	.	0.73	15%	-2.6	.

Among those listed so far, these have a thiophene ring, fused or not.
SMILES	Ecoli rRNA inh	Ecoli rRNA inh OD600	Ecoli rRNA inh RFP	ALR H2O2 inh	MLL AF4-AF9 inh	Ecoli growth	Vif A3G	HNF4A DNA FP	FGF22 binding
COc1cc(NC(=O)c2cccs2)ccc1NC(=O)c1ccco1	.	.	.	-13	.	0.68	-2%	-0.9	.
Cc1sc(N2C(=O)C3C(C2=O)[C@H]2C=C[C@@H]3C2)c(C#N)c1C (stereo partly drawn)	-2	-5	1.7	-1	3.3	0.65	-7%	-0.1	i
